gsp ag: gsp mutant agonism. gsp mutant cells, cAMP HTRF, 30 min; control for the full effect not named in the record. AID 624287. 340,000 tested, 0.13% active. Potency, µM (top dose mostly 76.9 µM), for inactives: at the top dose activation (cAMP increase), usual class: activators; active = well fitted activation curve with a large enough effect; inconclusive = small, poorly fitted or top-dose-only effect, or another doubt; inactive = no such curve, though single readings can be large or run the other way; cell line not stated here;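 further: phosphodiesterase inhibitor Ro 20-1724 added with compounds to block cAMP breakdown; potency means the concentration at half of the fitted maximal effect; nearly all actives have a fitted effect of over 60% in size; about a fifth of the inactives were tested at one dose only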
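Cells in DMEM/10% FBS with G418 were pretreated with compounds in DMSO plus […] (300 uM stock) for 30 min at 37C. cAMP was measured by HTRF (cAMP-d2 plus anti-cAMP antibody-K) after 30 min at room temperature.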
TRPML1 inh: inhibitors of human TRPML1 channel. activity change, negative = inhibition, % (test concentration not listed). 390,000 tested, 0.02% active. TRPML1-inducible cells, Ca2+ dye fluorescence, FDSS; hits give low values; inhibition of EC80 agonist-evoked calcium signal. Q9GZU1. AID 624415; in the data active means activity change below about -50%; inconclusive means about -30% to -50%; inactive means above about -30%;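 further: stimulus is agonist 54-4 at its EC80 concentration; on the % scale 0 is the no-effect control and ±100 the full control effect; compound concentration not given in the record; the text of the record puts the active cut at -80%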
Target sequence (Q9GZU1 whole entry, looked up): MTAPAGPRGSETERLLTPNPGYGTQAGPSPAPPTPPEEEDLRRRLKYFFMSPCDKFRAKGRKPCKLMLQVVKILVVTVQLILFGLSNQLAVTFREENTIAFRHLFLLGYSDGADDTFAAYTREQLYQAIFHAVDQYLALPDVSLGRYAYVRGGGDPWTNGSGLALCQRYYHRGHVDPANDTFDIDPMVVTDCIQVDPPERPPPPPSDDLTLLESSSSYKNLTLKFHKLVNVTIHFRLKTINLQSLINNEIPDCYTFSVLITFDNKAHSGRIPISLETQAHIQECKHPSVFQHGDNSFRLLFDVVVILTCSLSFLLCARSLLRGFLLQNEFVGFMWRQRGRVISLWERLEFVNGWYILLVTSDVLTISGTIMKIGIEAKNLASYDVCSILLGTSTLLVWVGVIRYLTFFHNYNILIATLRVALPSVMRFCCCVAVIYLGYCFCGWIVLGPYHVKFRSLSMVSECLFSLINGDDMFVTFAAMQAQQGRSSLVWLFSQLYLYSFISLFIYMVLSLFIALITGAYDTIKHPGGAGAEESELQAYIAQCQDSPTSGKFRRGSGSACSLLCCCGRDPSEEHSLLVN
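Calcium fluorescence in TRPML1-DL cells induced overnight with Tet: a 110 s read after compound pin addition, then a 110 s antagonist read after challenge with 54-4 at 4 uM final (EC80).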
Menin-MLL FL inh: displaces fluorescein MLL peptide from human menin; Fluorescence polarization, fluorescein-MLL peptide displacement from menin; FP activity change, % at 61.4 µM; 290,000 tested, under 10 active; inconclusive = falling polarisation curve, or a change in total fluorescence; inactive = total fluorescence flat and polarisation flat or rising; no compound was filed as active; the % refers to the polarisation; negative = inhibition;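 further: % of control where 0% means no effect; inhibitors lower the polarisation; unlabelled MLL peptide was the positive control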
TRPV1 potentiator: enhances activation of the human vanilloid receptor TRPV1. AID 540277. Q8NER1. 320,000 tested, 0.02% active. TRPV1-expressing cells, Fluo-8 calcium influx, capsaicin EC20 potentiation; host cell line not named in the record; control for the full effect not named in the record. potentiation, % at 8.33 µM; active means potentiation above 80%; inconclusive means 30% to 80%; inactive means below 30%; further: 0% is about no effect
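TRPV1-expressing cells were cultured overnight at 35.5C and loaded with Fluo-8 calcium dye for 40 to 90 min at room temperature. After a 10 s baseline, compound was added and calcium influx was read kinetically for 3 min (ex 480/em 520 nm).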
ClpP mod: qHTS Assay for Activators of ClpP | ATP-dependent Clp protease proteolytic subunit (Bacillus subtilis (strain 168)), P80244 | purified B. subtilis ClpP, FRET peptide cleavage, 20 min | Potency, µM (titrated, usually from 57.5 µM), for the others: top-dose activity change, negative = active | 340,000 tested, 1.9% active; active = well fitted falling curve with a large enough effect; inconclusive = small, poorly fitted or top-dose-only effect; inactive = no such curve, though single readings can be large or run the other way; further: potency means the concentration at half of the fitted maximal effect; the source files actives as falling curves though it sought activators and does not explain the sign; nearly all actives have a fitted effect of over 65% in size; many hits overshoot -100%
Target sequence (P80244 whole entry, looked up): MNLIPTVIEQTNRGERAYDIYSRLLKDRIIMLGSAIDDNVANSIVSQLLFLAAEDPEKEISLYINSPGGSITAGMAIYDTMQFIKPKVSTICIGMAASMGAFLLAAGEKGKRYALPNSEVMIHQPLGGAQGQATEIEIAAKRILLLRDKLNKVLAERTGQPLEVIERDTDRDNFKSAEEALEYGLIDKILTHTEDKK
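Purified B. subtilis ClpP, 10 microg/mL final in Tris/HCl pH8 with KCl, BSA, glycerol and Tween-20, cleaved an Abz/nitrotyrosine-quenched decapeptide. Fluorescence (ex 320, em 430) was read at 0 and 20 min at room temperature. Delta was normalized to 5.8 microM ADEP and DMSO/no-enzyme controls.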
Sfp inh: blocks B. subtilis Sfp PPTase activity; Q9F4F7; Biochemical Sfp PPTase activity, qHTS; Potency, µM, for inactives: max response, negative = inhibition, usual class: inhibitors; 310,000 tested, 3.5% active; AID 1490; active means well fitted inhibition curve with a large enough effect; inconclusive means small, poorly fitted or top-dose-only effect, or another doubt; inactive means no such curve, though single readings can be large or run the other way;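 further: the enzyme is Sfp with the accession as filed and its product quenches rhodamine fluorescence; potency means the concentration at half of the fitted maximal effect; 0% = enzyme reaction without inhibitor and -100% = no enzyme wells; top concentration of the series not given in the record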
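Fluorescence-quenching assay: 15 nM Sfp-PPTase preincubated 15 min at room temperature with compound, then 5 uM rhodamine-CoA and 12.5 uM BHQ-2-labelled YbbR peptide added. Fluorescence (ex 525/em 598 nm) read at start and after 30 min; difference gives rate.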
gsp antag: antagonists of gsp mutant (McCune-Albright syndrome) | gsp-mutant cells, cAMP HTRF, 30 min; control for the full effect not named in the record | Potency, µM (doses to about 76.9 µM), inactives show at the top dose activity change, negative = inhibition, most hits filed as inhibitors | 340,000 tested, 0.4% active | AID 624288; active = falling curve of any shape with a large fitted effect; inconclusive = falling curve, mostly with a smaller effect; inactive = flat or rising curve; cell line not stated here;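 further: intracellular cAMP measured with PDE inhibitor Ro 20-1724 present during compound exposure; potency means the concentration at half of the fitted maximal effect; on the % scale 0 is the no-effect control and ±100 the full control effect; nearly all actives have a fitted effect of over 65% in size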
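HTRF cAMP measurement after 30 min RT detection following 30 min, 37C compound treatment alongside […] (added as 300 uM solution) in G418-selected cells seeded at 2000/well and grown 16–24 h.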
Active calls of the source: *; ? = inconclusive; · = not tested or not shown; & = joins results of further samples; [ ] = remark or other dose.

#	Molecule	gsp ag	TRPML1 inh	Menin-MLL FL inh	TRPV1 potentiator	ClpP mod	Sfp inh	gsp antag
1	NC(=O)C1CCN(CC(=O)NC(=O)NC2CCCC2)CC1	0%	4	-2.0	10	·	13%	2%
2	OCCOCCn1c(C2CCCN2c2nc(-c3ccc(F)cc3)cs2)nc2cc(Cl)c(Cl)cc21 (stereo not given)	·	-6	·	·	-0.8%	·	-19%
3	Cc1ccccc1NS(=O)(=O)c1ccc(OCC(=O)NCc2ccccn2)cc1	-4%	-16	-3.2	1	·	9%	-4%
4	O=c1cc(-c2ccccc2)nc(N2CCN(Cc3ccc4c(c3)OCO4)CC2)[nH]1	7%	2	4.8	-4	-2.3%	-17%	-12%
5	COc1ccc(Cl)cc1NS(=O)(=O)c1c(C)nc2sccn2c1=O	?	0	0.7	19	1.7%	12%	5%
6	O=C(NCc1ccncc1)c1nc(-c2ccc(C(F)(F)F)cc2)no1	-18%[15.4 µM]	5	-5.9	10	·	19%	-15%
7	O=C(CNC(=O)c1ccco1)Nc1ccc(S(=O)(=O)N2CCCC2)cc1	-7%	-10	-0.4	-14	-0.5%	3%	-3%
8	Cc1nn(-c2ccccc2)nc1C(=O)Nc1cccc(C(=O)NC2CC2)c1	6%	-3	·	·	-8.8%	·	·
9	O=C(CCCN1C(=O)c2ccccc2C1=O)Nc1cccc(S(=O)(=O)NC2=NCCC2)c1	-2%[15.4 µM]	15	-1.4	-10	0.5%	8%	0%
10	CCOc1cccc2sc(N(CCN(CC)CC)C(=O)c3cccc(N4C(=O)CCC4=O)c3)nc12	-14%	3	·	-2	2.5%	·	15%
11	COc1cc(/C=N\NC(=O)C2COc3ccccc3O2)cc(OC)c1O (stereo not given)	-22%	-19	1.8	2	-24%	7%	0%
12	Cc1cc(OCc2cn(CC(=O)c3ccc(O)cc3)nn2)ccc1[N+](=O)[O-]	·	-11	·	·	-2.3%	·	-15%
13	CC(=O)c1ccc(NC(=O)CSc2nc3[nH]ncc3c(=O)[nH]2)cc1	-14%	13	·	4	2.2%	·	19%
14	CCN(CC)CCCNC(=O)c1cn(CC)c2ccc(S(=O)(=O)N3CCc4ccccc4C3)cc2c1=O	-78%[inhibitor]	-1&-13	-1.8	3	-1.2%&-5.4%	5%	15%
15	CC(=O)Nc1ccc(Oc2cncc(Cl)c2)nc1	14%	6	2.1	-3	·	22%	11%
16	CN(C)C(CNC(=O)CCc1nc2cc(Cl)ccc2n(Cc2ccccc2)c1=O)c1ccccc1 (stereo not given)	0%[15.4 µM]	11	·	1	-4.1%	·	-1%
17	CSCCC(NC(=O)c1ccccc1Br)C(=O)Nc1ccc(C)cc1 (stereo not given)	-52%[inhibitor]	13	-0.9	-6	-0.7%	8%	1%
18	CCOC(=O)CSc1nc(=O)n2ccc(C)cc2n1	?	-18	0.1	-6	·	18%	-5%
19	Cc1ccccc1NC(=O)C1CCN(c2cnccn2)CC1	?	2	2.4	0	-23%	6%	4%
20	CCCc1nc2c(c(=O)c3ccccc3n2C)c(=O)n1-c1ccc(F)cc1	?	-6	5.3	-10	-1.5%	-9%	-4%
21	O=c1[nH]c(=S)[nH]c(O)c1/C=C1\C=Nc2ccccc21	-5%[15.4 µM]	2	·	·	0.3%	·	6%
22	O=C1C(=O)N(CCO)C(c2ccccc2)/C1=C(\O)c1ccccc1 (stereo not given)	?	10	1.7	-4	-0.6%	-4%	6%
23	Cc1c(CCC(=O)O)c(=O)oc2cc(OCc3cccc(F)c3)ccc12	11%[15.4 µM]	-14	-0.2	7	·	29%	0%
24	O=C(CN1C(=O)S/C(=C\c2ccccc2)C1=O)NCCCn1ccnc1	?	0	·	10	-5.2%	-23%	-12%
25	Cc1ccc2c(c1)[C@H]1[C@H](CO2)[C@H](c2ccccc2)[C@]2(C)C(=O)Nc3ccc(Cl)cc3C(=O)N12	2%	0	·	·	-16%	·	-12%
26	C/C(=N\Nc1nc2ccccc2nc1C)c1ccccc1O	25%[15.4 µM]	3	-0.7	·	·	14%	-3%
27	O=C(CCN1C(=O)/C(=C/c2ccc(F)cc2)SC1=S)NNC(=O)c1ccncc1	-11%	2	-9.5	-4	-1.0%	-2%	?
28	Cc1ccc(CN(Cc2ccco2)C(=S)NCC(=O)NC2CC2)cc1	-7%[15.4 µM]	-25	7.5	-13	·	50µM*	4%
29	COCCn1c(=NC(=O)CCS(=O)(=O)c2ccccc2)sc2ccccc21	16%	-7	·	·	0.1%	·	-2%
30	COC(=O)C(NC(C)=O)(Nc1ccccc1)C(=O)OC	-32%[inhibitor]	-28	1.5	17	-0.3%	23%	10%
31	Cc1cccc(C)c1OCC(=O)Nc1oc(-c2ccccc2)c(-c2ccccc2)c1C#N	?	28	·	·	?	·	-19%
32	COc1ccc(S(=O)(=O)N(C)C[C@H]2Oc3c(NC(=O)CCC(F)(F)F)cccc3C(=O)N([C@H](C)CO)C[C@@H]2C)cc1	15%	4	·	·	1.9%	·	-18%
33	CCOc1ccccc1NC(=O)CSc1nc2c(c(=O)n(C)c(=O)n2C)n1C	17%[15.4 µM]	-8	-1.1	2	·	14%	0%
34	CCOCCCNC(=O)COC(=O)/C=C/c1ccc(S(=O)(=O)N2CCc3ccccc32)cc1	8%[15.4 µM]	3	0.9	11	·	-9%	?
35	O=C(c1ccccc1Cc1ccccc1)N1CCN(S(=O)(=O)c2ccc(F)cc2)CC1	-38%[inhibitor]	-12	·	-1	-19%	·	10%
36	CN(C)c1cccc(C(=O)Nc2nc3ccccc3[nH]2)c1	-60%[15.4 µM]	21	-1.1	2	·	2%	?
37	O=C(COC(=O)c1ccccc1-n1cnnn1)c1ccc(F)cc1	-26%[15.4 µM]	13	·	3	·	·	3%
38	COCC(=O)Nc1nc2ccccc2s1	-23%	-3	1.1	7	1.0%	12%	-7%
39	O=C(COC(=O)c1cc(Br)ccc1O)NNC(=O)c1ccc([N+](=O)[O-])cc1	-6%[15.4 µM]	11	·	-2	·	·	14%
40	Cc1ccc(-c2nc(-c3ccccn3)sc2CC(=O)O)cc1	?	4	2.7	0	3.7%	1%	-2%
41	Cc1cccc(S(=O)Cc2ccc(C(=O)N3CCN(C(=O)c4ccco4)CC3)o2)c1 (stereo not given)	?	12	·	-4	3.0%	13%	-2%
42	O=C1CC(c2ccccc2)CC(=NCCO)/C1=C(\O)CCCN1C(=O)c2ccccc2C1=O (stereo not given)	17%[15.4 µM]	-7	5.7	9	·	7%	-14%
43	COC(=O)c1c(NC(=O)COC(=O)c2ccc(Cl)cc2[N+](=O)[O-])sc2c1CCCCC2	-35%[inhibitor]	-2	1.8	1	-1.7%	10µM*	?
44	CC(C)[C@H](NC(=O)c1ccco1)C(=O)OCc1cc(=O)n2c(n1)sc1ccccc12	-11%	-12	2.9	-2	?	-1%	-12%
45	CCOC(=O)c1c(S(=O)(=O)Nc2ccc(C)c(F)c2)c(C)n(C)c1C	15%	8	·	-11	0.6%	14%	11%
46	CCOP(=O)(OCC)C(C#N)=C1SCN(c2ccc(Cl)cc2)CS1	-3%	26	0.0	-12	-0.7%	?	-6%
47	CN(CC(=O)Nc1ccc(F)c(F)c1F)C(=O)C1CCC1	11%[15.4 µM]	0	·	-11	·	·	11%
48	COc1cccc(Nc2nc(-c3sc(C)nc3C)cs2)c1	-23%	6	-5.9	24	-5.5%	-29%	-20%
49	CNS(=O)(=O)c1cc(S(=O)(=O)NC)c2cccc3c2c1NC3=O	16%	9	1.0	4	4.1%	6%	13%
50	COc1ccc(C(=O)NCCC(=O)N2CCC3(CC2)NCCc2[nH]cnc23)cc1	?	7	·	9	1.0%	20%	9%
51	COc1ccccc1CNCc1ccc(OC)c2ccccc12	-2%[15.4 µM]	-7	·	·	2.4%	·	-2%
52	COc1ccc(-c2nc3cc(C)ccn3c2NC(=O)c2c(F)cccc2Cl)cc1	-13%	3	-0.6	-6	-1.4%	7%	-7%
53	Fc1ccccc1COc1cccc2cccnc12	4%	-9	·	·	·	·	1%
54	Clc1ccc(-c2csc3ncnc(NCCN4CCOCC4)c23)cc1	-13%	3	0.6	-16	1.3%	5%	-6%
55	O=C(c1ccc(NS(=O)(=O)c2ccc3c(c2)OCCO3)cc1)N1CCCCC1	0%	-12	-2.1	2	-1.5%	17%	-22%

3 structures out of the list, sorted by heavy-atom count, rising.
#	Molecule	gsp ag	TRPML1 inh	Menin-MLL FL inh	TRPV1 potentiator	ClpP mod	Sfp inh	gsp antag
53	Fc1ccccc1COc1cccc2cccnc12	4%	-9	·	·	·	·	1%
12	Cc1cc(OCc2cn(CC(=O)c3ccc(O)cc3)nn2)ccc1[N+](=O)[O-]	·	-11	·	·	-2.3%	·	-15%
43	COC(=O)c1c(NC(=O)COC(=O)c2ccc(Cl)cc2[N+](=O)[O-])sc2c1CCCCC2	-35%[inhibitor]	-2	1.8	1	-1.7%	10µM*	?

Among those listed so far, 6 have two or more sulfur atoms:
#	Molecule	gsp ag	TRPML1 inh	Menin-MLL FL inh	TRPV1 potentiator	ClpP mod	Sfp inh	gsp antag
5	COc1ccc(Cl)cc1NS(=O)(=O)c1c(C)nc2sccn2c1=O	?	0	0.7	19	1.7%	12%	5%
27	O=C(CCN1C(=O)/C(=C/c2ccc(F)cc2)SC1=S)NNC(=O)c1ccncc1	-11%	2	-9.5	-4	-1.0%	-2%	?
29	COCCn1c(=NC(=O)CCS(=O)(=O)c2ccccc2)sc2ccccc21	16%	-7	·	·	0.1%	·	-2%
46	CCOP(=O)(OCC)C(C#N)=C1SCN(c2ccc(Cl)cc2)CS1	-3%	26	0.0	-12	-0.7%	?	-6%
48	COc1cccc(Nc2nc(-c3sc(C)nc3C)cs2)c1	-23%	6	-5.9	24	-5.5%	-29%	-20%
49	CNS(=O)(=O)c1cc(S(=O)(=O)NC)c2cccc3c2c1NC3=O	16%	9	1.0	4	4.1%	6%	13%
